Screening results deposited in PubChem BioAssay by Southern Research Institute.
total CFTR: total CFTR protein upregulators, primary screen, cell-based, HeLa F508del-CFTR, immunofluorescence, viability (AID 1224863). HeLa F508del-CFTR, immunofluorescence total CFTR, 24 h; by the record results were divided by relative cell number; some inactives read as strong as hits. calls, or highest fold increase where a dose series was run. 10,000 compounds, 0.1% hits; in the data nearly all actives have a first-pass fold increase above 1.5; a few of its hits are not listed in these tables;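 further: total CFTR protein by anti-CFTR immunofluorescence in fixed cells; first pass at 25 µM or 10 µg/mL by library and series up to twice that; 1 = untreated cells; first-pass hits also needed half or more of the cells alive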
total CFTR fold 25 µM: further read-out of total CFTR, marked with its call; fold increase; measured here: primary screen single dose 25 uM; library dosed in µM
total CFTR fold 10 ug/mL: recorded beside total CFTR, whose call it bears; fold increase; measured here: primary screen 10 ug/mL
total CFTR viability 25 µM: also measured in total CFTR; calls as there; viability, %; measured here: primary viability 25 uM; library dosed in µM;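 0% = killed and 100% = untreated cells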
total CFTR viability 10 ug/mL: also measured in total CFTR; calls as there; viability, %; measured here: primary viability 10 ug/mL;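 0% = killed and 100% = untreated cells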
The depositor's hits bear a star; i = inactive; / = not tested or not shown; & = joins results of further samples. A portion of the library (hit frequency here may not be typical).

SMILES	total CFTR	total CFTR fold 10 ug/mL	total CFTR viability 10 ug/mL	others
CC(C)CC(C(=O)NCC(c1cccs1)N(C)C)N1C(=O)C2CC=CCC2C1=O (centres undefined)	i	0.99	87.0
CC[C@@]1(O)C[C@H](O[C@H]2C[C@H](N(C)C)[C@H](O[C@H]3C[C@H](O)[C@H](O[C@H]4CCC(=O)[C@H](C)O4)[C@H](C)O3)[C@H](C)O2)c2c(cc3c(c2O)C(=O)c2c(O)cccc2C3=O)[C@H]1C(=O)OC	i	/	/	total CFTR fold 25 µM=0.66;total CFTR viability 25 µM=32.0
CC(C)n1nnnc1SCc1cc(Cl)c2c(c1)OCCO2	i	1.03	80.0
CC(=O)c1c[nH]c(C(=O)OC(C)C(=O)c2[nH]c(C)c(C(C)=O)c2C)c1 (centres undefined)	i	1	85.0
O=S(=O)(Nc1ccc2c(c1)OC1(CCCC1)O2)c1ccc(F)c(F)c1F	i	1.04	79.0
CCC(C)(C)NS(=O)(=O)c1ccc(N2CCCC(C(F)(F)F)C2)nc1 (centres undefined)	i	1.03	98.0
Cc1sc2ncnc(N3CCC(C(=O)N4CCNC(=O)C4)CC3)c2c1C	i	1.19	81.0
CNCC(O)COC (centres undefined)	i	1.01	87.0
CCc1ccc(S(=O)(=O)NC2(c3noc(C)n3)CCCC2)cc1	i	1	94.0
CCCS(=O)(=O)NC1CCN(c2nn3cc(C(C)(C)C)nc3s2)CC1	i	1	90.0
C=C1CC[C@H](O)C/C1=C/C=C1\CCC[C@]2(C)[C@@H]([C@H](C)CCCC(C)(C)O)CC[C@@H]12	i	/	/	total CFTR fold 25 µM=1.02;total CFTR viability 25 µM=80.0
CCN(C)C(=O)Oc1cccc([C@H](C)N(C)C)c1	i	/	/	total CFTR fold 25 µM=1.24&1.06;total CFTR viability 25 µM=101.0&98.0
Cn1c(SCC2CC2(Cl)Cl)nc2sc3c(c2c1=O)CCC3 (centres undefined)	i	1	92.0
C1CNCCN1	i	/	/	total CFTR fold 25 µM=1.09;total CFTR viability 25 µM=92.0
Cc1nc(C)c(-c2nnc(SCC(=O)N3CCc4sccc4C3)o2)s1	i	0.92	87.0
CC1CCCN(S(=O)(=O)Cc2ccc(C#N)cc2)C1 (centres undefined)	i	1.01	103.0
O=C(C1CCCO1)N1CCN(S(=O)(=O)c2ccc3c(c2)CCC3)CC1 (centres undefined)	i	0.97	90.0
Fc1ccc(-c2csc(NCC3CCCO3)n2)c(F)c1 (centres undefined)	i	0.85	87.0
c1ccc(-c2cnc(CNC(c3ccccc3)c3ccccc3)o2)cc1	i	0.98	94.0
CC(C)C(C)NS(=O)(=O)N1CCc2ccccc2C1 (centres undefined)	i	0.92	79.0
O=C(OCCOc1ccc(Br)cc1)c1sc2cc(F)ccc2c1Cl	i	1.01	96.0
CC(C)c1ccc(C(=O)CN2C(=O)C(=O)N(C(C)C)C2=O)cc1	i	1.04	98.0
C=CCn1c(C)cc(-c2csc(NC(=O)C3CC3)n2)c1C	i	1.02	93.0
O=C(C1COc2ccc(Cl)cc2C1)N1CCc2ccccc21 (centres undefined)	i	1.06	99.0

Part of the list above in order of formula weight, ascending:
SMILES	total CFTR	total CFTR fold 10 ug/mL	total CFTR viability 10 ug/mL	others
C1CNCCN1	i	/	/	total CFTR fold 25 µM=1.09;total CFTR viability 25 µM=92.0
CCN(C)C(=O)Oc1cccc([C@H](C)N(C)C)c1	i	/	/	total CFTR fold 25 µM=1.24&1.06;total CFTR viability 25 µM=101.0&98.0
CC(C)C(C)NS(=O)(=O)N1CCc2ccccc2C1 (centres undefined)	i	0.92	79.0
Fc1ccc(-c2csc(NCC3CCCO3)n2)c(F)c1 (centres undefined)	i	0.85	87.0
O=C(C1COc2ccc(Cl)cc2C1)N1CCc2ccccc21 (centres undefined)	i	1.06	99.0
CC(C)c1ccc(C(=O)CN2C(=O)C(=O)N(C(C)C)C2=O)cc1	i	1.04	98.0
c1ccc(-c2cnc(CNC(c3ccccc3)c3ccccc3)o2)cc1	i	0.98	94.0
Cn1c(SCC2CC2(Cl)Cl)nc2sc3c(c2c1=O)CCC3 (centres undefined)	i	1	92.0
O=C(C1CCCO1)N1CCN(S(=O)(=O)c2ccc3c(c2)CCC3)CC1 (centres undefined)	i	0.97	90.0
CCCS(=O)(=O)NC1CCN(c2nn3cc(C(C)(C)C)nc3s2)CC1	i	1	90.0
C=C1CC[C@H](O)C/C1=C/C=C1\CCC[C@]2(C)[C@@H]([C@H](C)CCCC(C)(C)O)CC[C@@H]12	i	/	/	total CFTR fold 25 µM=1.02;total CFTR viability 25 µM=80.0
O=C(OCCOc1ccc(Br)cc1)c1sc2cc(F)ccc2c1Cl	i	1.01	96.0
